HSD17B inh = blocks hydroxysteroid 17-beta dehydrogenase activity; Potency, µM (doses to about 57.1 µM), for the others: at the top dose activity change, negative = inhibition, most hits filed as inhibitors; 75,000 compounds, 7.6% hits; Q99714; recombinant HSD17B10, NADH fluorescence kinetic; many of its hits are not listed in these tables; active means well fitted inhibition curve with a large enough effect; inconclusive means small, poorly fitted or top-dose-only effect; inactive means no such curve, though single readings can be large or run the other way;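 further: the protocol describes HADH2 (HSD17B10) and not the HSD17B4 of the title; nearly all actives have a fitted effect of over 70% in size; most hits overshoot -100% by far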
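Activity followed as NADH fluorescence increase (ex 360, em 450 nm) every 30 seconds for 4 min, using final 90 uM beta-hydroxybutyryl CoA and 1 mM NAD+. Recombinant His-tagged enzyme, 20 nM, pH 9.0 Tris buffer, 15 min compound preincubation.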
An asterisk follows results filed as active; i = inactive; ? = inconclusive; & = joins results of further samples; [ ] = remark or other dose. On the % scale 0 is the no-effect control and ±100 the full control effect; potency means the concentration at half of the fitted maximal effect.

Compound | HSD17B inh
COC(=O)COc1cccc(-n2cnnn2)c1 | -9%
COc1cccc(C(=O)n2cnnc2N)c1OC | 42%[activator]
C=CCN1CCN(C(CC(C)C)c2nnnn2CCOC)CC1 (centres undefined) | 2%
COC(=O)c1cn(-c2ccccc2)nc1C(=O)OC | -7%
COC(=O)c1sc(NC(=O)c2ccc(OC)cc2OC)nc1C | -22%
CCCCNC(=O)c1c[nH]c2ccc(S(=O)(=O)Nc3ccc(OCC)cc3)cc2c1=O | -13%
Cc1ccc2nc(S(=O)(=O)O)[nH]c2c1 | ?
N#Cc1c(N)c(C(=O)c2ccc(Br)cc2)n2c1CCC2 | 2%
N[C@H](C(=O)O)c1ccc(C(=O)O)cc1 | 8%
Cc1nnsc1NC(=O)OCC(C)C | ?
CC(NC(=O)NCC1CCCO1)(C(F)(F)F)C(F)(F)F (centres undefined) | 6%
CCOc1ccc(-c2nc(=S)[nH][nH]2)cc1 | ?
CN(c1ccc(O)cc1)c1nc(-c2ccccc2)cs1 | -6%
O=C(NCc1ccccn1)C1CCN(S(=O)(=O)N2CCCCC2)CC1 | 8%
Cn1c(=O)cc(OCCCC(=O)Nc2ccc3c(c2)OCCO3)c2ccccc21 | -7%
COc1ccc(Cl)cc1N(CC(=O)Nc1ccc2c(c1)OCCO2)S(C)(=O)=O | 3%
COc1ccc(-c2nnn(CC(=O)Nc3sc4c(c3C#N)CCCC4)n2)cc1 | 5%
CCCC[C@]1(C2CCCC2)Cc2cc(OCC(=O)O)c(Cl)c(Cl)c2C1=O | ?
O=C1c2ccccc2C(=O)N1CCCc1nc2ccccc2c(=O)n1-c1cccnc1 | -7%
Cc1ccc(-n2nnnc2SCC(=O)c2cc(C)n(-c3cc(C)on3)c2C)c(C)c1 | -4%
CC(C)C(=O)NC(c1ccco1)c1ccc2cccnc2c1O (centres undefined) | -9%
O=C(CN1C(=O)c2ccccc2S1(=O)=O)Nc1ccc(S(=O)(=O)N2CCCC2)cc1 | 8%
O=S(=O)(Nc1ncn[nH]1)c1ccc2ccccc2c1 | 4%
CCOC(=O)Cn1c(=NC(=O)CSC(C)=O)sc2cc(OC)ccc21 | ?

Three records drawn at random from the list so far, as already listed:
Compound | HSD17B inh
C=CCN1CCN(C(CC(C)C)c2nnnn2CCOC)CC1 (centres undefined) | 2%
Cc1ccc(-n2nnnc2SCC(=O)c2cc(C)n(-c3cc(C)on3)c2C)c(C)c1 | -4%
O=C(CN1C(=O)c2ccccc2S1(=O)=O)Nc1ccc(S(=O)(=O)N2CCCC2)cc1 | 8%

(continued)
Compound | HSD17B inh
CC(C)(C)NS(=O)(=O)c1cccc2nsnc12 | -3%
Cc1cc(C)c(NC2=NCC(=O)N2C2CCCCC2)c(C)c1 | 3%
CN(C(=O)c1ccncc1)c1nnc(-c2ccccn2)s1 | i
CCc1ccccc1NC(=O)CSc1nnc(-c2ccco2)n1N | 6%
CCc1ccc(N2CCN(C(=O)c3ccc(OC)c(OC)c3)CC2)cc1 | 1%
c1ccc(-n2nnnc2NCCc2c[nH]c3ccccc23)cc1 | -1%
CC(=O)N1CCc2cc(S(=O)(=O)NCCC(=O)Nc3ccc4c(c3)OCCO4)ccc21 | 1%
O=C(Nc1nnc(CC(=O)N2CCOCC2)s1)C1COc2ccccc2O1 (centres undefined) | 1%
O=C(O)CNC(=O)C1COc2ccccc2O1 (centres undefined) | 2%
Cc1ccc(C(C(=O)NC2CCCCC2)N(CC2CCCO2)C(=O)CNC(=O)c2ccco2)cc1 (centres undefined) | 2%
O=C(Oc1ccccc1)c1cccc2cccnc12 | 14%
CCN(CC)C[C@@H](O)CN1CCCCc2nc(C)c(C)cc21 | -3%[11.4 µM]
Cc1cc(C)cc(N2CC34C=CC(O3)C(C(=O)OCC(=O)NCc3ccco3)C4C2=O)c1 (centres undefined) | 2%
Cc1cc(C(=O)CSc2nnc(-c3cccs3)o2)c(C)n1-c1ccccc1 | 135%[activator]
O=C(Cn1cnc2c(cnn2-c2ccc(Cl)cc2)c1=O)NCCc1ccccc1 | -8%
O=C(O)CCC(=O)c1ccc(Cl)cc1 | 10%[11.4 µM]
COc1ccccc1-c1ccc(C(=O)O)o1 | 32µM*
Cc1cc2c(s1)c1cnn(CC(=O)NCCc3ccccc3)c(=O)c1n2C | -1%
Cn1c(N)cc(=O)n(Cc2ccccc2)c1=O | -5%
COCc1cc(=O)[nH]c(/N=C(\N)Nc2ccc(Oc3ccccc3)cc2)n1 | -16%
O=C1C2C3c4ccccc4C(c4ccccc43)C2C(=O)N1Cc1ccco1 (centres undefined) | -7%
O=C1CNC(=O)/C1=C\N1CCCCC1 | 1%
COC(=O)C1=C(C)NC(=O)CC1c1ccc(C(=O)OC)cc1 (centres undefined) | -1%
CC1CC(=O)C2=C(C1)Nc1ncnn1C2c1ccccc1 (centres undefined) | 453%[activator]
Cc1cc(C(=O)Nc2c(F)cc(F)cc2Br)c(C)o1 | 5%
Cc1nc(SCC(=O)c2ccccc2)n[nH]1 | ?
Cc1ccc(C2CC(c3ccccc3OC(F)F)Nc3ncnn32)cc1 (centres undefined) | 19%
CC(=O)N1CCc2cc(NC(=O)c3ccc(C)cc3)ccc21 | 2%
Cc1nc(CC(=O)O)c(-c2ccccc2)s1 | 2%
CCn1c(-c2cc(Br)cc(OC)c2O)nc2cc(S(=O)(=O)N(C)C)ccc21 | -10%
CC(=O)c1cccc(NC(=O)NCc2ccco2)c1 | -2%
COc1ccccc1CNC(=O)CSc1nc(-c2ccccc2)cn1N | -4%
COc1ccccc1-c1noc(-c2cc(OC)c(OC)c(OC)c2)n1 | ?
Cc1nn(-c2ccccc2)c(C)c1NC(=O)c1cccs1 | 2%
CCn1cc(C(=O)NCCCN2CCC(C)CC2)c(=O)c2cc(S(=O)(=O)N3CCCC3)ccc21 | -4%
Cc1ccc(C)c(S(=O)(=O)N2CCN(CC(=O)NC(=O)NCc3ccccc3)CC2)c1 | -1%
COC(=O)C1=C(C)N(Cc2ccccc2)[C@]23O[C@](C(=O)OC)(C(=O)N2C1c1ccccc1)C1C(=O)N(c2ccccc2)C(=O)C13 (some centres undefined) | 0%&-1%[11.4 µM]
COc1cc(C2NC(=O)NC(O)(C(F)(F)F)C2C(=O)c2cccs2)ccc1O (centres undefined) | -8%
O=C(NCCNC(=O)c1ccc(Br)o1)c1ccc(Br)o1 | 2%
COC(=O)c1oc2ccc(Br)cc2c1NC(C)=O | -1%
CC(C)(C)OC(=O)N1CCCC1C(=O)N1CCCC1C(=O)N1CCCC1C(=O)O (centres undefined) | 7%
COCCn1c(CNc2ccc(F)cc2)nnc1SCC(=O)Nc1ccc(OC)cc1OC | 4%
Cc1ccc(C(=O)NCCNS(=O)(=O)c2ccccc2)cc1 | 8%
O=C1c2ccccc2C(Nc2cccnc2)N1Cc1ccc2c(c1)OCO2 (centres undefined) | 10%
O=C(NCc1ccc2c(c1)OCO2)C1CC(=O)N(C2CCCC2)C1 (centres undefined) | 12%
O=C(c1ccco1)N1CCN(c2ncnc3scc(-c4cccs4)c23)CC1 | 4%
CCOC(=O)N1CCC(NC(=O)c2cnn3c(C(F)(F)F)cc(-c4cccc(OC)c4)nc23)CC1 | -6%
COc1ccc(C(=O)N2CCC3(CC2)CN(C(=O)NC(C)C)C3)cc1 | 5%
CC(NC(=O)c1ccco1)C(c1cccs1)N1CCN(c2ccccc2)CC1 (centres undefined) | 7%
CC(=O)Nc1ccc(S(=O)(=O)N(C)c2ccccc2)cc1 | 6%
CCN(CC)CCn1c(NCc2ccc(OC)cc2)nc2ccccc21 | 4%
O=C(NCCN1CCOCC1)c1cc(-c2ccc(F)cc2)on1 | 1%
CCOC(=O)C1=C(N)OC2=C(C(=O)CC(C)(C)C2)C1C1CCCCC1 (centres undefined) | -7%
COCCCn1c2nc3ccccc3nc2c2c(=O)n(Cc3ccc(Cl)cc3)c(C)nc21 | 2µM*
Cc1ccc2cc(C#N)c(N3CCCN(C(=O)C4CCCO4)CC3)nc2c1 (centres undefined) | ?
Cn1c(=O)n(C)c(=O)n(CC(=O)N2CCCCC2)c1=O | 6%
COCCn1c(SCC(=O)N2CCCC2)nnc1C(C)C | 1%
CCOc1ccccc1N1CCN(S(=O)(=O)CC)CC1 | -15%
Cc1c(NC(=O)CSc2nnc3sc4ccccc4n23)c(=O)n(-c2ccccc2)n1C | -3%
CCCn1c(=O)c2ccccc2n2c(SCC(=O)c3ccccc3)nnc12 | -12%

Additional compounds:
Compound | HSD17B inh
O=C(NCCNC(=O)c1cccs1)c1ccco1 | 16%
COc1cc(C2Nc3ccc4ncccc4c3C3=C2C(=O)CCC3)ccc1O (centres undefined) | -9%
O=C1CC(c2ccccc2)CC(O)=C1C=NCCCO (centres undefined) | -1%
c1ccc(-c2nnc3sc(-c4csc5c4CCCC5)nn23)cc1 | ?
O=S(=O)(c1ccc(N2CCOCC2)cc1)N1CCOCC1 | -14%
CCc1nn(CC(=O)O)c(=O)c2ccccc12 | -7%
O=C(/C=C/c1ccc(O)c(O)c1)O[C@@H](C(=O)O)[C@@H](OC(=O)/C=C/c1ccc(O)c(O)c1)C(=O)O | ?
OC1CCN(c2ncnc3c2nnn3Cc2c(F)cccc2Cl)CC1 | -8%
Cc1ccc2oc3c(c(=O)c2c1)C(c1cccc(Br)c1)N(Cc1ccco1)C3=O (centres undefined) | 4%
O=C(Oc1ccc(-c2nc(-c3ccccn3)no2)cc1)c1ccccc1 | 0%
CC(=O)N1CCCc2cc(S(=O)(=O)NC(C(=O)NC(C)c3ccccc3)C(C)C)ccc21 (centres undefined) | 9%
CCC(C)N1C(=O)C2C(C(=O)Nc3cccc(OC)c3)C3C=CC2(O3)C1C(=O)NC1CCCCC1C (centres undefined) | 3%
O=C(NCCCN1CCN(c2ccccc2)CC1)Nc1ccccc1C(F)(F)F | 8%
COc1ccc(-c2nc(C#N)c(NCC3CCCO3)o2)cc1 (centres undefined) | 25µM*
Cc1nc2cnc(Oc3ccccc3)nc2n(CCc2ccccc2)c1=O | -1%
COc1ccc(CN2C(=O)C(O)(CC(=O)c3c(C)n[nH]c3C)c3ccccc32)cc1OC (centres undefined) | -21%
O=C(O)c1ccc(Cl)c(S(=O)(=O)Nc2ccccc2F)c1 | 9%
COc1cccc(Nc2ncc3nc(C)c(=O)n(CCc4ccccc4)c3n2)c1 | ?
COC(=O)COC(=O)c1ccc(Oc2nc(OC)nc(N(C)C)n2)cc1 | -10%
O=C(Nc1nc(-c2ccc3c(c2)OCO3)cs1)C1COc2ccccc2O1 (centres undefined) | 12%
O=C(COC(=O)c1cnccn1)c1ccccc1 | 0%
COc1ccc(S(=O)(=O)N[C@@H](CC(C)C)C(=O)O)cc1 | -4%
O=C(Cn1c(=O)oc2ccccc21)N1CCN(c2ccccc2)CC1 | -9%
O=C(COC(=O)c1ccccc1)NCc1ccco1 | -23%

The list goes on; the last 4 above are carried over.
Compound | HSD17B inh
O=C(COC(=O)c1cnccn1)c1ccccc1 | 0%
COc1ccc(S(=O)(=O)N[C@@H](CC(C)C)C(=O)O)cc1 | -4%
O=C(Cn1c(=O)oc2ccccc21)N1CCN(c2ccccc2)CC1 | -9%
O=C(COC(=O)c1ccccc1)NCc1ccco1 | -23%
Cc1onc(-c2ccccc2Cl)c1C(=O)N1CC(C)OC(C)C1 (centres undefined) | -2%
O=C(Cn1c(=O)oc2ccccc21)N1CCCCC1 | -10%
O=C(NCCc1ccccc1)C1CCCN(C(=O)NC2CCCCC2)C1 (centres undefined) | 5%
CCCCCCCCCCCCC/C=C\[C@@H](O)[C@H](CO)NC(C)=O | -11%
Cc1cccc(NC(=O)Cn2c(=O)oc3ccccc32)c1 | -12%
COCCCn1c2nc3ccccc3nc2c2c(=O)n(Cc3ccccc3Cl)cnc21 | ?
COc1ccccc1OCC(=O)N1CCNC1=O | 2%
CCCn1c(SCC(=O)/C(C#N)=C(\C)N)n[nH]c1=O | 9%
CCOc1cc(/C=C(/C#N)c2ccc(F)cc2)ccc1OCc1ccc(C(=O)O)o1 | -10%
CSCCC(NC(=O)c1cncc(Br)c1)C(=O)O (centres undefined) | -5%
CCOC(=O)C1CCCN(C(=O)c2cc(-c3ccccc3)on2)C1 (centres undefined) | -1%
CCOC(=O)N1CCC(NC(=O)c2ccc(CS(=O)(=O)c3ccc(OC)cc3)o2)CC1 | 7%

Compounds from the list above that have a tert-butyl group:
Compound | HSD17B inh
CC(C)(C)NS(=O)(=O)c1cccc2nsnc12 | -3%
CC(C)(C)OC(=O)N1CCCC1C(=O)N1CCCC1C(=O)N1CCCC1C(=O)O (centres undefined) | 7%

Going on with the list:
Compound | HSD17B inh
CC(CCCC(C)(C)O)NCCO (centres undefined) | 4%
COc1cc(C(=O)N(CCc2ccccc2)C2CC3CCC(C2)N3C)cc(OC)c1OC (centres undefined) | 7%
CCOc1ccc(NC(=O)C2CSC(c3ccncc3)=N2)cc1 (centres undefined) | -3%
CCN(CC)c1ccc2c(c1)OC(N)=C(C#N)C2c1cccnc1 (centres undefined) | -3%
Clc1ccc(C2=CSC3=NCCN23)cc1Cl | -16%
Cc1nnc2c3ccccc3c(-c3ccccc3)nn12 | ?
O=C(OCc1nc2ccccc2s1)c1ccc(Br)s1 | -15%
COC(=O)[C@@]1(Cc2ccccc2)[C@H]2c3cc(C(=O)N4CCCC4)n(Cc4cc(F)cc5c4OCOC5)c3C[C@H]2CN1C(=O)c1ccccc1 | 16%

These rows are one share of the data (hit frequency here may not be typical).
